PrP UTR inh: inhibition of PrP 5' UTR reporter expression | cell-based PrP 5' UTR mRNA reporter, plate reader | inhibition, % (concentration not given with the values) | AID 488862, 2010 | 0.35% of 340,000 active;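 active = every replicate at 50% or more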;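 note: 0 = median of the neutral control wells; tested in H4 reporter cells; numbers are from one replicate; inactives centre near -14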
Mtb hypoxia rep: PubChem AID 1159583 | M. tuberculosis hypoxia-regulated fluorescent reporter, fluorescence | 0.1% of 300,000 active | fluorescence inhibition, % (concentration not given with the values);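 active = 35 to 45% if threefold the growth effect, above 45% if 1.5-fold the growth effect; inactive = the rest, general growth blockers included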;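 note: wells of about 50 µL received 100 nL stock; 0% = vehicle wells and 100% = reference inhibitor wells; whole bacteria with a GFP reporter of the hypoxia response; strong numbers were not always called active; many hits fall short of the cut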
ugtP null kill: growth inhibition of ugtP-null S. aureus, primary screen, RN4220 ugtP deletion, OD600. growth inhibition, % (no concentration beside the values). AID 1259309, 2017. 16 h; some inactives read as strong as hits. 0.54% of 330,000 active;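 active = z-score under -3 and OD600 up to 0.15 on both plates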;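 note: plate controls were untreated wells for no effect and antibiotic for full effect; wells of about 80 µL received 100 nL stock; the first replicate is given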
RN4220 kill: growth inhibition of S. aureus RN4220, primary screen, OD600 | AID 1259311, 2017 | 0.33% of 330,000 active | inhibition, % (test concentration not listed) | 16 h;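 active = z-score of -3 or lower and OD600 up to 0.18 on both plates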;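 note: plate controls were untreated cells for no effect and reference antibiotic for full effect; stock transfer was 100 nL into about 80 µL; one replicate is shown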
Bead autofluor: counter-screen for toxin protease inhibitors: compound fluorescence | compound autofluorescence counterscreen, microsphere flow cytometry; hits give high values | fluorescence intensity (test concentration not listed) | 3.1% of 360,000 active;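 active = at least 3 SD above the mean of all compounds, about 16000 in these data; inconclusive = too few beads counted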;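 note: 100 nL of 1 mM stock went into each well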
BJeLR viability: MLPCN primary cell-based screen for lethality selective to Ras in HRASV12 cells; BJeLR (HRASV12) viability, CellTiter-Glo ATP luminescence, 48 h; reference of the scale not given here; inhibition, % (test concentration not listed); 0.17% of 300,000 active;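 active = replicate mean above 50%; inconclusive = above 50% but judged a plate artefact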;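 note: 50 nL library stock added to about 25 µL; numbers are from one replicate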
Mtb hypoxia rep growth: further read-out of Mtb hypoxia rep, marked with its call; growth inhibition, %; measured here: M. tuberculosis growth (absorbance);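 0% = vehicle and 100% = reference antibiotic; read after six days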
Starred values were filed as active, the others as inactive; ? = inconclusive; . = not tested or not shown.

Preview:
SMILES	PrP UTR inh	Mtb hypoxia rep	Mtb hypoxia rep growth	ugtP null kill	RN4220 kill	Bead autofluor	BJeLR viability
CC(=O)NCCNC(=O)[C@H](Cc1ccccc1)NC(=O)c1cccs1	-7	12	1	7	1.5	20647*	-1
CC(=O)N1CCSc2ccc(S(=O)(=O)NCCc3ccc(C)cc3)cc21	1	4	-2	4	4.8	5456	5

Main list, from the first entry:
SMILES	PrP UTR inh	Mtb hypoxia rep	Mtb hypoxia rep growth	ugtP null kill	RN4220 kill	Bead autofluor	BJeLR viability
CC(=O)NCCNC(=O)[C@H](Cc1ccccc1)NC(=O)c1cccs1	-7	12	1	7	1.5	20647*	-1
CC(=O)N1CCSc2ccc(S(=O)(=O)NCCc3ccc(C)cc3)cc21	1	4	-2	4	4.8	5456	5
CCOc1ccc(N(CC(=O)NN=C2CCCC2)S(C)(=O)=O)cc1	-5	9	7	3	3.5	2548	2
COc1cccc(C=NNc2ncnc3scc(-c4ccccc4)c23)c1OC	.	-7	15	-24	3.4	.	.
COc1ccccc1C(=O)C(O)c1ccccc1OC (configuration not stated)	-11	9	18	-6	6.2	20282*	0
O=C(CNC(=O)OCc1ccccc1)OC(c1ccccc1)c1ccccc1	-9	9	5	10	2.8	3003	.
NC(=O)Cn1cc(C=NNS(=O)(=O)c2ccc(Cl)cc2)c2ccccc21	.	-2	-6	19	2.3	.	.
CCc1nc2c(cnn2-c2ccc(Cl)cc2)c(=O)n1-c1ccc(OC)cc1	8	.	.	0	-1.0	3015	-4
COc1ccc(CCNC(=O)CSc2ccc(-c3ccncc3)nn2)cc1	-7	-3	-3	-1	4.7	4675	11
CCN(CC)S(=O)(=O)c1cccc(NC(=O)C2SC(=Nc3ccc(C)cc3C)C(C(=O)NCC3CCCO3)=C2N)c1 (configuration not stated)	-27	-6	8	-17	2.4	23589*	-8
Cn1ncc(Cl)c1C(=O)NCC1CCCO1 (configuration not stated)	-24	6	-5	5	-0.5	5682	8
CC(C)COC(=O)c1ccc(NC(=O)C2C3C=CC(C3)C2C(=O)O)cc1 (configuration not stated)	-83	.	.	-5	-1.1	5912	-6
Cc1ccccc1OCCN=Cc1c(O)n(C)c(=O)n(C)c1=O	-29	12	12	-3	5.2	22922*	4
COC(=O)c1c(C(=O)OC)c(-c2ccc(C(C)(C)C)cc2)n2c1CS(=O)C2 (configuration not stated)	-19	-2	6	-3	-5.8	4538	6
CC(C)c1cc(NC(=O)CCl)on1	5	19	23	-6	0.6	1980	-2
NC(=O)C(c1ccc(Cl)cc1)c1ccc(Sc2ccccc2)nn1 (configuration not stated)	-1	2	1	0	5.8	2470	5
c1ccc(CC2CN=C(Nc3ccccc3)N2CC2CCCCC2)cc1 (configuration not stated)	.	0	3	-12	1.5	.	.
O=C(NN=C/C=C/c1ccco1)c1cncc(Br)c1	.	4	4	10	0.5	.	.
O=C(NCc1ccccn1)C1CN(S(=O)(=O)c2ccccc2)CCN1S(=O)(=O)c1ccccc1 (configuration not stated)	0	6	4	9	4.5	3327	-8
Cc1ccc(-n2nnc(-c3cc4ccccc4nc3Cl)n2)cc1	-31	18	7	10	7.4	3972	0
CC(C)(C)OC(=O)C(NC(=O)OCc1ccccc1)c1ccccc1 (configuration not stated)	.	3	-4	1	0.9	.	.
CCOC(=O)c1sc(NC(=O)c2cccc(S(=O)(=O)N3c4ccccc4CC3C)c2)cc1C (configuration not stated)	-20	2	-8	-18	-2.3	1891	7
Nc1c2c(nc3sc4c(c13)CCCC4)-c1ccccc1CC2	-102	5	3	-17	1.2	.	20
Cc1ccnc(NS(=O)(=O)c2ccc(NC(=O)Cc3c(F)cccc3Cl)cc2)n1	-34	18	5	10	6.1	3468	-2
Cc1[nH][nH]c(=O)c1C(c1ccc(N(C)C)c(Br)c1)c1c(C)[nH][nH]c1=O	-2	.	.	.	.	5849	0

(continued)
SMILES	PrP UTR inh	Mtb hypoxia rep	Mtb hypoxia rep growth	ugtP null kill	RN4220 kill	Bead autofluor	BJeLR viability
COc1ccc(C(=O)CC(=O)c2ccccc2O)cc1OC	-34	-3	12	-9	-2.7	2054	-10
COCCN(Cc1cc2cc(C)ccc2nc1Cl)C(=O)Nc1ccccc1OC	-15	12	5	2	3.9	3925	0
CCCS(=O)(=O)c1c(S(=O)(=O)CCC)c2ccccn2c1C(=O)OC	3	-12	8	-5	-3.7	12428	22
CC(=NNC(=O)CCC(=O)Nc1ccccc1Cl)c1ccco1	-8	9	7	-6	3.4	3642	.
O=C(NCCC1=CCCCC1)C1CCN(S(=O)(=O)c2ccc(Br)s2)CC1	-20	11	12	-24	-1.0	8572	0
O=C(Cc1ccc(N(CCCl)CCCl)cc1)NC(Cc1ccc(Cl)cc1)C(=O)O (configuration not stated)	-15	9	10	0	3.9	3770	20
c1ccc(-n2nnnc2SCc2ccccn2)cc1	0	-2	9	1	2.9	8801	20
COCCNc1oc(-c2ccc(F)cc2)nc1C#N	-17	6	6	0	1.7	3471	-1
COc1ccccc1C1CN=NC12CCCc1ccccc1C2=O (configuration not stated)	-3	4	3	-1	1.9	4309	4
O=S(=O)(c1cc(Cl)ccc1Cl)n1ccnc1	-20	-1	10	18	2.2	4262	.
CCN(Cc1ccccc1)S(=O)(=O)c1c(C(=O)N2CCCC2)c(C)n(C)c1C	9	15	12	3	1.1	5453	14
COC(=O)Cn1c(CN2CCN(c3ccc(F)cc3)CC2)nc2c1c(=O)n(C)c(=O)n2C	-16	9	10	-3	-13	6031	5
OC1(c2ccc(F)cc2)CC2CCC(C1)N2Cc1nnnn1C1CCCC1 (configuration not stated)	-33	-15	-33	-5	4.4	9358	1
CC(C)/C=N/Nc1nc(-c2ccc(Br)cc2)cs1	-29	.	.	.	.	2241	-7
C=C(C)CSc1nc(N)cc(=O)[nH]1	-11	.	.	.	.	?	-4
CCCC(C)C1(CC)C(=O)NC(=Nc2ccccc2)NC1=O (configuration not stated)	-26	8	7	9	2.0	6952	1
Cc1cc(OCc2ccccc2)ccc1/C(O)=C1/C(=O)C(=O)N(Cc2cccnc2)C1c1ccncc1 (configuration not stated)	-7	3	3	2	3.6	.	-6
CCCCn1c(=S)[nH]c2cc(S(=O)(=O)N3CCOCC3)ccc21	-9	17	8	-2	1.8	3769	.
COCC(C)NCc1cc(Br)ccc1OC (configuration not stated)	-1	4	2	3	6.2	3686	-5
COC(=O)C(C)Oc1cc(OC(C)C(=O)OC)c2c(-c3ccccc3)cc(=O)oc2c1 (configuration not stated)	-2	4	17	16	1.5	3523	-7
CCCN1CCC(=O)N([C@H](CO)Cc2ccccc2)CC1	-1	-5	-2	4	6.4	3760	3
O=C(COc1ccc2ccccc2c1Br)N1CCN(c2ccccn2)CC1	-65	1	9	-19	10.0	21691*	-7
COc1cccc2[nH]c(=O)c(-c3ccccc3)cc12	-35	10	-1	-3	4.1	3813	-2
CCCCc1cc(=O)oc2cc(OCC(=O)NCc3ccccn3)ccc12	-20	5	6	2	-4.1	5105	-4
COc1ccc(CCNC(=O)CN(c2ccc(OC)c(OC)c2)S(C)(=O)=O)cc1	-14	4	7	4	2.9	4188	1

Six compounds picked at random from the list so far, as already listed:
SMILES	PrP UTR inh	Mtb hypoxia rep	Mtb hypoxia rep growth	ugtP null kill	RN4220 kill	Bead autofluor	BJeLR viability
COC(=O)C(C)Oc1cc(OC(C)C(=O)OC)c2c(-c3ccccc3)cc(=O)oc2c1 (configuration not stated)	-2	4	17	16	1.5	3523	-7
CCCC(C)C1(CC)C(=O)NC(=Nc2ccccc2)NC1=O (configuration not stated)	-26	8	7	9	2.0	6952	1
C=C(C)CSc1nc(N)cc(=O)[nH]1	-11	.	.	.	.	?	-4
CC(=NNC(=O)CCC(=O)Nc1ccccc1Cl)c1ccco1	-8	9	7	-6	3.4	3642	.
CCN(Cc1ccccc1)S(=O)(=O)c1c(C(=O)N2CCCC2)c(C)n(C)c1C	9	15	12	3	1.1	5453	14
O=C(Cc1ccc(N(CCCl)CCCl)cc1)NC(Cc1ccc(Cl)cc1)C(=O)O (configuration not stated)	-15	9	10	0	3.9	3770	20

Next section:
SMILES	PrP UTR inh	Mtb hypoxia rep	Mtb hypoxia rep growth	ugtP null kill	RN4220 kill	Bead autofluor	BJeLR viability
O=C(Nc1cccc([N+](=O)[O-])c1)c1ccc(CN2CCOCC2)cc1	-59	5	9	3	-1.5	2092	1
Cc1ccc(NC(=O)c2ccccc2)cc1-n1cnnn1	-15	7	-2	5	5.0	5217	12
CN1CC2C3C(=O)N(Cc4ccccc4)C(=O)C3[C@](Cc3ccccc3)(C1=O)N2C(=O)c1ccc(Cl)c(Cl)c1 (some centres not stated)	.	-6	1	-14	1.9	.	.
CCN(C(=O)COC(=O)c1cc2c(s1)CCCC2)c1c(N)n(Cc2ccccc2)c(=O)[nH]c1=O	-10	0	0	4	2.4	.	.
COc1ccccc1C(C)Nc1nc(-c2cccnc2)nc2ccccc12 (configuration not stated)	-6	-13	21	-14	-10	4177	-6
C=CCn1c(C)cc(C(=O)COC(=O)CCc2cc(OC)c(OC)c(OC)c2)c1C	-14	6	6	8	4.2	3882	.
CS(=O)(=O)N1CCN(C(=O)c2cccnc2)CC1	-107	7	0	0	-0.5	6891	-1
O=C(c1cc(-c2ccccc2Cl)nc2ccccc12)N1CCC1	-12	1	-2	5	0.5	5187	-4
c1ccc(CNc2ncnc3nc[nH]c23)nc1	-18	2	0	8	0.8	5107	-2
Cc1ccc(-c2cc(C(=O)NN=Cc3ccco3)n[nH]2)s1	.	17	10	-3	3.8	.	.
CNc1c(NS(=O)(=O)c2ccc(F)c(Cl)c2)c(=O)oc2ccccc12	-14	-1	-1	-15	11	3553	6
Cn1cc(/C=C2\SC(=O)N(c3ccc(O)cc3)C2=O)c2ccccc21	-9	4	-3	6	-8.0	3694	2
Cc1cc(NS(=O)(=O)c2ccc(NC(=O)CSc3nc4ncccc4[nH]3)cc2)nc(C)n1	4	16	10	7	2.7	6054	9
Cc1cc(C(=O)OCC(=O)Nc2cccc(S(N)(=O)=O)c2)c(C)o1	-12	5	7	6	5.6	.	.
CCOC(=O)c1c(-c2ccc(C)o2)csc1NC(=O)COC(=O)c1ccc(NC(N)=O)cc1	-14	3	1	56	27	4478	1
Cn1c(=O)c2ccccc2n2c(CCl)nnc12	-1	.	.	7	-1.6	4759	-3
CCC(=O)Nc1ccc(C(=O)OCc2ccccc2)cc1	-26	14	0	3	3.9	3196	0
COc1cccc(C(=O)/C=C/c2ccc(N3CCCCC3)c([N+](=O)[O-])c2)c1	-8	7	1	3	-1.9	1879	-7
CC(CCC(=O)O)C1CC[C@@]2(C)C3C(=O)CC4C(C)(C)C(O)CC[C@]4(C)C3C(=O)C[C@]12C (some centres not stated)	-23	5	6	2	8.9	3875	-4
Cc1cc(SCC(=O)N(CC(C)C)c2c(N)n(CC(C)C)c(=O)[nH]c2=O)nc2ccccc12	1	9	3	10	4.8	.	.
Cc1ccc(NC(=O)COC(=O)c2ccc(Cl)cc2)cc1S(=O)(=O)N(C)C	-30	17	12	10	2.8	4452	0
CC(=NNc1cccc(Cl)c1)C1(C)N(O)C(C)(C)C(c2ccco2)=[N+]1[O-] (configuration not stated)	.	4	3	1	3.1	.	.
O=C(OCc1nc2ccccc2s1)c1ccccc1O	-41	-5	5	4	2.9	3318	-1

Bioassay records (PubChem)
